# High-throughput results: PubChem, several laboratories
# PKA inh – inhibitors of human protein kinase A; P17612; PKA Kemptide phosphorylation, Kinase-Glo ATP luminescence; inhibition, % at 6 µM; 0.1% of 65,000 active; AID 524;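 active = inhibition above the screen-wide mean inhibition plus 3 SD, cut at about 21% in these data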; note: many of its hits are not listed in these tables
# AP ELISA ortho – alternative pathway complement inhibition, orthogonal assay; Human serum alternative complement pathway, LPS-coated ELISA, C3 deposition; tested in compound mixtures; inhibition, % at 5 µM; 0.08% of 62,000 active;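 active = inhibition above 30% in each of the two pooled mixtures holding the compound, so the lower value exceeds 30%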;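 note: 0% = serum in Mg-EGTA without compound and 100% = EDTA serum blank; some compounds past the cut are filed as inactive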
#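 Test system: human serum alternative complement pathway, C3 deposition on LPS-coated wells; also added: Plate-bound LPS; doses: 5 µM per compound in ten-compound mixtures; schedule: 1 h at 37 °C; detection: Anti-C3 ELISA, OD 450 nm; evaluation: percent inhibition of C3 deposition onto LPS; repeats: two pool placements per compound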
# ROCK2 blocker – ROCK2 (human) kinase inhibition | 0.35% of 60,000 active | purified ROCK2, Kinase-Glo ATP depletion luminescence | inhibition, % at 6 µM | AID 604;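 active = inhibition above the screen-wide mean inhibition plus 3 SD, cut at about 18% in these data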;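 note: plate controls were DMSO wells for no effect and Y-27632 control wells after no-enzyme background subtraction for full effect; many of its hits are not listed in these tables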
# Target sequence (O75116 whole entry, looked up): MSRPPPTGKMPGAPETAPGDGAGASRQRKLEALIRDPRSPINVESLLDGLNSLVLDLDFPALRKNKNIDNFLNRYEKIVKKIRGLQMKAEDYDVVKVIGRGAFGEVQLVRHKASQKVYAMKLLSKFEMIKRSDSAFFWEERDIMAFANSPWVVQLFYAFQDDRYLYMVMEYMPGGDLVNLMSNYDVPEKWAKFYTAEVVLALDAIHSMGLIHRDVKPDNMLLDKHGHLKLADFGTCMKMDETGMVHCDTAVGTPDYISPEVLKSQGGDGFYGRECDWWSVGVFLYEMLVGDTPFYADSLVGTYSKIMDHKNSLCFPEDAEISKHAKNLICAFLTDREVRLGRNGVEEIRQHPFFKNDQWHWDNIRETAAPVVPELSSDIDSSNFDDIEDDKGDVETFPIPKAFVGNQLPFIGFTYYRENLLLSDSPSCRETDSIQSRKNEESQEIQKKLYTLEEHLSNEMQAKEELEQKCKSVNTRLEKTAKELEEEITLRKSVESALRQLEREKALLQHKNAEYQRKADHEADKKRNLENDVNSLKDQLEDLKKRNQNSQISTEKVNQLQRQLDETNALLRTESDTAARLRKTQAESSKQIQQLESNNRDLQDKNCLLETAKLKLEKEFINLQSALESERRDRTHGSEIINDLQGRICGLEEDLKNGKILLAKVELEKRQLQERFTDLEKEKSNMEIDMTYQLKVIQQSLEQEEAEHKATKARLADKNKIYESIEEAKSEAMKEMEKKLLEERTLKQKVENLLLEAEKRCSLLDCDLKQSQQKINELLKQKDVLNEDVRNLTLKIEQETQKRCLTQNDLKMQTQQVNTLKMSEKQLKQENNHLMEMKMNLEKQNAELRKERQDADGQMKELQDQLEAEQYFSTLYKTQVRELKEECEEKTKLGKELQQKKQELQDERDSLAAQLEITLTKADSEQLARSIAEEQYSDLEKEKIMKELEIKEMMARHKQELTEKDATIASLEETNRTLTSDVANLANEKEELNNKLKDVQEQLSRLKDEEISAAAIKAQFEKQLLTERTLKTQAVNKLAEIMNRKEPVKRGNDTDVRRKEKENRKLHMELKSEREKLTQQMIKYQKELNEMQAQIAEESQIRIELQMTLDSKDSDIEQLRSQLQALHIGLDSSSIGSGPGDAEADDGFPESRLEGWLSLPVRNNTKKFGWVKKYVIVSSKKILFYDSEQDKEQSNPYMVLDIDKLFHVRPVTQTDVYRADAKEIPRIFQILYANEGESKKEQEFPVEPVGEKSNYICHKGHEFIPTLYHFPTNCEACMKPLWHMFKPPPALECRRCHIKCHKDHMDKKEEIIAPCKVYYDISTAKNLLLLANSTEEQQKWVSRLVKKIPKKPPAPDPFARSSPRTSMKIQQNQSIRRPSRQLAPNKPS
# CatB mixtures – inhibitors of human cathepsin B in compound mixtures; inhibition, %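 (ten-compound pools at 5 µM per compound and 50 µM total)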; Purified cathepsin B, AMC dipeptide fluorescence; 0.06% of 62,000 active; AID 488; in the data active = inhibition above about 22%, passing the limit was not always enough;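 note: 0% = enzyme without compound and 100% = no enzyme blank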
# RORA act – RORA (human) activation | CHO-K1 Gal4-RORA LBD luciferase reporter, luminescence; percent increase over mock-subtracted basal signal | activation, % at 10 µM | 1.5% of 65,000 active | AID 560;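 active = activation above the mean of all tested compounds plus 3 SD, cut at about 49% in these data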;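 note: 0% = DMSO-treated RORA cells and 100% = added signal equal to DMSO minus mock-transfected cells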
# Ec RNAP inh – inhibitors of Escherichia coli RNA polymerase; P0A8V2; E. coli RNA polymerase, fluorescence transcription assay; inhibition, %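 (tested at 10 µM)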; 0.2% of 62,000 active; in the data active = inhibition above about 20%;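 note: 0% = enzyme without compound and 100% = no enzyme blank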
# CatB block – blocks human cathepsin B protease activity | P07858 | AID 453 | 0.1% of 63,000 active | inhibition, %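 (tested at 10 µM)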 | purified cathepsin B, fluorogenic substrate, fluorescence; in the data active = inhibition above about 21%;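 note: 0% = enzyme with no compound and 100% = no enzyme blank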
# CatS block – inhibitors of human cathepsin S. P25774. recombinant cathepsin S, AMC dipeptide fluorescence, pooled mixtures. inhibition, %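 (tested at 5 µM per compound within 10-compound mixtures)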. 0.06% of 62,000 active. AID 501; in the data active = inhibition above about 32%, passing the limit was not always enough;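 note: 0% = enzyme without compound and 100% = blank without enzyme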
# * = called active by the depositor; x = not tested or not shown.
SMILES,PKA inh,AP ELISA ortho,ROCK2 blocker,CatB mixtures,RORA act,Ec RNAP inh,CatB block,CatS block
O=C1CNCc2[nH]c3ccccc3c2N1c1ccccc1,11,16,7,9,-5,6,0,-1
O=C(c1ccc2c(c1)OCO2)N1CCN=C1SCc1cccnc1,1,10,1,2,-11,5,0,-3
CC(=O)N1CCc2c(sc(NC(=O)c3ccc4c(c3)OCCO4)c2C#N)C1,-2,11,-3,0,49*,9,3,8
O=C(NCCOc1ccccc1)c1n[nH]c(=O)c2ccccc12,3,9,4,4,4,7,4,16
Cc1cc(NC(=O)CN2CCCCC2C)nc2c1c(=O)oc1ccccc12 (configuration not stated),2,12,2,1,-5,2,0,2
COC(=O)c1ccccc1NC(=O)CN1C(=O)C2CCCN2c2ncc(Cl)cc21 (configuration not stated),1,14,-3,4,-15,0,-4,-3
O=C(Nc1nc(-c2cccs2)cs1)c1ccc(S(=O)(=O)N2CCCC2)cc1,12,-2,3,-3,0,4,0,-6
CSc1nnc2c(n1)[nH]c1c(C)cccc12,4,-7,3,0,31,x,x,18
Cc1ccc(Cl)cc1NC(=O)CCn1cccc1,7,16,5,0,8,-4,1,2
CCOC(=O)C1=C(O)CSC1=Nc1ccccc1,-2,13,3,-2,-7,0,-4,6
COc1ccc(C2=NOC(C(=O)Nc3ccc(C(C)=O)cc3)C2)cc1OC (configuration not stated),12,-3,4,3,39,-7,1,-8
C=CCn1c(SCC(=O)c2cc(C)n(C(C)COC)c2C)nc2sc(C)c(C)c2c1=O (configuration not stated),2,15,1,5,-8,7,-1,1
O=C(NCCc1ccccc1)C1CC(c2ccccc2O)=NO1 (configuration not stated),1,-11,6,-5,10,10,0,14
CCOC(=O)c1cnc(SCC(=O)NCc2cccs2)nc1N,12,10,4,1,-3,2,2,-12
Cc1ccc2c(CC(=O)Nc3c(C)n(C)n(-c4ccccc4)c3=O)coc2c1,8,-4,6,-3,11,2,6,6
COc1ccc(S(=O)(=O)CCC(=O)NC2CCCCC2)cc1,9,2,8,-3,-6,3,-1,-8
O=C(c1ccc(Cn2c(=O)[nH]c3ccccc3c2=O)cc1)N1CCN(c2ccc(F)cc2)CC1,7,12,7,0,-29,5,0,2
c1ccc(C2C3=C(Nc4ncnn42)c2ccccc2CCC3)cc1 (configuration not stated),1,16,3,5,-3,5,0,-5
COCCn1c(=S)[nH]c2cc(C(=O)N3CCN(Cc4ccc5c(c4)OCO5)CC3)ccc2c1=O,6,10,2,6,2,5,4,1
CCOc1ncccc1C(=O)Nc1cccc(C(=O)Nc2cccc(S(=O)(=O)CCO)c2)c1,6,0,5,1,18,2,4,-2

# An excerpt of these results, with two lines to a compound:
# Values run as follows: PKA inh | AP ELISA ortho | ROCK2 blocker | CatB mixtures | RORA act | Ec RNAP inh | CatB block | CatS block
> C=CCn1c(SCC(=O)c2cc(C)n(C(C)COC)c2C)nc2sc(C)c(C)c2c1=O (configuration not stated)
 : 2 | 15 | 1 | 5 | -8 | 7 | -1 | 1
> O=C(NCCc1ccccc1)C1CC(c2ccccc2O)=NO1 (configuration not stated)
 : 1 | -11 | 6 | -5 | 10 | 10 | 0 | 14
> CCOC(=O)c1cnc(SCC(=O)NCc2cccs2)nc1N
 : 12 | 10 | 4 | 1 | -3 | 2 | 2 | -12
> Cc1ccc2c(CC(=O)Nc3c(C)n(C)n(-c4ccccc4)c3=O)coc2c1
 : 8 | -4 | 6 | -3 | 11 | 2 | 6 | 6

# Copied from the results shown, 2 compounds:
SMILES,PKA inh,AP ELISA ortho,ROCK2 blocker,CatB mixtures,RORA act,Ec RNAP inh,CatB block,CatS block
O=C1CNCc2[nH]c3ccccc3c2N1c1ccccc1,11,16,7,9,-5,6,0,-1
O=C(c1ccc2c(c1)OCO2)N1CCN=C1SCc1cccnc1,1,10,1,2,-11,5,0,-3

# (cont.)
SMILES,PKA inh,AP ELISA ortho,ROCK2 blocker,CatB mixtures,RORA act,Ec RNAP inh,CatB block,CatS block
CCOc1ccccc1NC(=O)CSc1nc(N)c(C#N)cc1C#N,11,8,-1,6,-7,6,-1,6
Cc1cc(NC(=O)CN2CCN(c3ccccc3F)CC2)nc2c1c(=O)oc1ccccc12,3,28,5,3,-15,8,4,-2
COC(=O)c1cc(Br)c(=O)n(Cc2cccnc2)c1,5,3,7,1,-4,8,5,8
COc1cccc(C2=NOC(C(=O)Nc3cccc(C(C)=O)c3)C2)c1 (configuration not stated),1,15,3,7,-8,3,-4,-2
NC(=O)c1oc2ccccc2c1NC(=O)CCc1ccccc1,-2,7,-6,3,-1,2,3,-2
c1ccc2c(-c3ccncc3)c[nH]c2c1,65*,-7,89*,-5,12,3,0,7
CCCC(=O)Nc1ccc(Cl)c(NC(=O)c2ccc(Br)o2)c1,8,7,-1,-7,-17,11,1,-3
Fc1cccc(Nc2cc(-n3cccn3)ncn2)c1,2,2,-5,2,44,9,-1,12
C/C(Nc1cccc(F)c1)=C(/C#N)C(N)=O,5,-9,5,4,-7,2,9,12
COc1ccc(C2=NOC(C(=O)NCCCN3CCOCC3)C2)cc1 (configuration not stated),6,7,1,9,-12,14,0,16
CSc1ccccc1NC(=O)C1CC(c2ccccc2O)=NO1 (configuration not stated),3,-7,3,3,-10,14,8,17
C=CCn1c(SCC(=O)c2cccs2)nc2sc(CC)cc2c1=O,-1,17,3,6,-21,2,-2,7
CCc1cc2c(=O)n(Cc3ccco3)c(SCC(=O)N3CCCc4ccccc43)nc2s1,-8,-20,-2,0,-21,3,2,21
Cc1cc(NC(=O)CN2CC3CC(C2)c2cccc(=O)n2C3)nc2c1c(=O)oc1ccccc12 (configuration not stated),6,16,4,1,0,8,1,-3
CCOC(=O)c1c(CC(C)C)csc1NC=O,10,17,5,5,5,2,4,-5
CC1(C)Cc2c(C#N)c(SCC(=O)c3ccccc3)nc(N3CCOCC3)c2CO1,8,21,9,-1,19,-2,5,12
Cn1c(NC(=O)c2ccccc2NC(=O)C(C)(C)C)nc2ccccc21,6,10,-2,5,14,-1,-1,-6
CCOC(=O)c1cnc(SCC(=O)Nc2nc(C)c(C)s2)nc1N,0,23,6,3,1,4,-4,-8
CCOC(=O)c1c(CC(C)C)csc1NC(C)=O,-5,2,0,-3,-6,8,0,13
O=C(O)c1ccc(-n2nnnc2Oc2ccccc2C(=O)N2CCOCC2)cc1,9,7,10,-5,-6,1,1,-16

# 6 entries from above, ordered by the value under AP ELISA ortho, lowest first.
Compound,PKA inh,AP ELISA ortho,ROCK2 blocker,CatB mixtures,Ec RNAP inh,CatB block,CatS block
C/C(Nc1cccc(F)c1)=C(/C#N)C(N)=O,5,-9,5,4,2,9,12
CSc1ccccc1NC(=O)C1CC(c2ccccc2O)=NO1 (configuration not stated),3,-7,3,3,14,8,17
CCOC(=O)c1c(CC(C)C)csc1NC(C)=O,-5,2,0,-3,8,0,13
O=C(O)c1ccc(-n2nnnc2Oc2ccccc2C(=O)N2CCOCC2)cc1,9,7,10,-5,1,1,-16
COc1cccc(C2=NOC(C(=O)Nc3cccc(C(C)=O)c3)C2)c1 (configuration not stated),1,15,3,7,3,-4,-2
C=CCn1c(SCC(=O)c2cccs2)nc2sc(CC)cc2c1=O,-1,17,3,6,2,-2,7

# Entries of single compounds, quoted from the list.
# CCc1cc2c(=O)n(Cc3ccco3)c(SCC(=O)N3CCCc4ccccc43)nc2s1 in the list: PKA inh = -8; AP ELISA ortho = -20; ROCK2 blocker = -2; CatB mixtures = 0; RORA act = -21; Ec RNAP inh = 3; CatB block = 2; CatS block = 21
# O=C(O)c1ccc(-n2nnnc2Oc2ccccc2C(=O)N2CCOCC2)cc1 in the list: PKA inh = 9; AP ELISA ortho = 7; ROCK2 blocker = 10; CatB mixtures = -5; RORA act = -6; Ec RNAP inh = 1; CatB block = 1; CatS block = -16

# Following part
SMILES,PKA inh,AP ELISA ortho,ROCK2 blocker,CatB mixtures,RORA act,Ec RNAP inh,CatB block,CatS block
c1ccc2c3c([nH]c2c1)-c1[nH]ncc1CC3,-4,3,3,-6,-10,7,1,7
NC(=O)c1oc2ccccc2c1NC(=O)C1CCCCC1,0,14,3,11,-4,1,-7,-5
CCOc1ccc(C(=O)Nc2cc(C)c3c(=O)oc4ccccc4c3n2)cc1,5,13,-9,1,-22,8,3,-3
COC(=O)c1cc(Br)c(=O)n(CCN2CCOCC2)c1,1,6,0,-8,-4,4,1,-5
Cc1cc(C)n(-c2ccc(C(=O)Nc3nc4ccccc4s3)cc2)n1,12,-9,5,-7,49*,1,2,8
CC(C)(C)Cc1nc(-c2ccccn2)no1,0,11,3,3,33,12,-1,-4
COc1ccc(C)cc1NC(=O)NC1CCN(Cc2ccccc2)CC1,6,6,5,2,-3,11,2,0
COC(=O)c1ccccc1NC(=O)CN(c1ccccc1)S(=O)(=O)N(C)C,-5,x,-1,x,-21,x,x,x
Cc1c(OCc2nn[nH]n2)ccc2c3c(c(=O)oc12)CCC(C)C3 (configuration not stated),1,7,-1,-2,-6,1,0,-12
CCC(C)NC(=O)C1CC(c2ccc(OC)cc2)=NO1 (configuration not stated),3,12,1,1,10,1,1,0
COC(=O)c1cccc(NC(=O)Cc2coc3cc(OC)ccc23)c1,6,16,8,-2,-2,3,5,-11
CCOC(=O)c1cnc(SCC(=O)Nc2ccc(NC(=O)CC)c(OC)c2)nc1N,7,5,0,0,-6,7,5,7
O=C(CN1CCN(c2ccccc2)CC1)Nc1c(C(=O)C2CC2)oc2ccccc12,2,x,3,x,-3,x,x,x
COc1ccc(C(=O)Nn2c(C3CCC3)nc3ccccc3c2=O)c(OC)c1,-1,8,1,0,11,5,4,-8
CCn1c(=O)[nH]c2cc(C(=O)N3CCN(c4ccccc4)CC3)ccc2c1=O,9,0,2,-1,0,8,6,6
CN1CCN(CC(=O)Nc2c(C(=O)C3CC3)oc3ccccc23)CC1,4,-2,3,2,23,9,1,7
COCCNC(=O)C1CC(c2cccc(OC)c2)=NO1 (configuration not stated),2,10,1,-1,-11,-2,-1,0
O=C(Nc1ccc(F)cc1)c1cccnc1N1CCOCC1,7,-3,6,3,-24,13,3,7
COc1ccc(C2=NOC(C(=O)Nc3cc(C)nn3-c3ccccc3)C2)cc1OC (configuration not stated),6,23,4,2,-10,4,-3,2
CCC(CC)NC(=O)c1n[nH]c(=O)c2ccccc12,0,-25,1,0,0,2,-2,-1
CSc1nc(N2CCCC2)c2c(c1C#N)CC(C)(C)OC2,2,x,2,x,-25,3,3,x
CCCCc1nc(N2CCOCC2)c(C#N)c2c1COC(C)(C)C2,4,x,1,x,-3,5,2,x
CCCC(=O)Nc1cc(C)c2c(=O)oc3ccccc3c2n1,8,-17,-2,4,21,-10,2,5
COc1ccc(S(=O)(=O)N2CCC(N3CCCCC3)CC2)cc1,-3,x,2,x,-11,3,-4,x
Cc1ccc2c(CC(=O)NC3=NCCS3)coc2c1,8,11,5,14,13,11,5,17
CCn1ncc(C2=NOC(C(=O)Nc3ccccc3C(=O)OC)C2)c1C (configuration not stated),4,12,2,5,-7,-1,-6,0
NC(=O)c1oc2ccccc2c1NC(=O)c1ccco1,0,5,5,-2,-2,13,3,5
Cc1ccc(-c2nc(NCCN3CCOCC3)c3ccccc3n2)cc1,3,24,2,5,44,6,-2,-2
COc1ccc(C2=NOC(C(=O)N3CCCc4ccccc43)C2)cc1 (configuration not stated),2,17,0,3,15,5,-1,4
C=CCn1c(=S)[nH]c2ccccc2c1=O,6,x,9,x,11,x,5,x

# The list is partial, so the mix of outcomes need not match the whole.
